Arbovirus anti = blocks arbovirus infection. arbovirus infection cell-based antiviral screen. inhibition, % at 10 µM. hit rate 0.37% among 200,000;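 active = inhibition from about 30%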;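 also: bluetongue infection of BSR cells; cell survival read as ATP light after 72 h; 0% = infected wells without compound and 100% = uninfected wells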
YopH inh = blocks Yersinia enterocolitica YopH tyrosine phosphatase; fluorescence Ex485/Em525; inhibition, %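 (about 10 µM by stock and volumes)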; hit rate 0.16% among 140,000; AID 898;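 active = inhibition of 50% or more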;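 also: controls were vehicle for no effect and minimum signal wells for full effect; inactives centre near -20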
Arbovirus anti repeat = also measured in Arbovirus anti; calls as there; inhibition, %; measured here: 10K subset replicate screen; many hits read low in the repeat;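 first of two repeat runs on a subset; 0% = infected and 100% = uninfected wells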
The depositor's hits bear a star; · = not tested or not shown. A portion of the library; count on the stated rates, not on these rows.

SMILES	Arbovirus anti	YopH inh	others
O=C1c2ccccc2-c2ncnc3cccc1c23	·	-25
C=CCn1c(SCC(=O)NCc2ccco2)nc2sc3c(c2c1=O)CCCCC3	·	-3
CCCCCCNC(=O)c1c(N)n(/N=C/c2ccco2)c2nc3ccccc3nc12	·	-63
CCOC(=O)c1sc(NC(=S)n2cc(C)cn2)c(C(=O)OCC)c1C	·	0
COC(=O)c1ccc(CSc2nc(-c3ccc(OC)cc3)nc3c2c(=O)n(C)c(=O)n3C)o1	·	30
CC1=NC(=O)C(N=Nc2ccccc2C)N1c1ccccc1 (stereo not drawn)	·	-20
Cc1cc[n+](-c2nc([O-])n(-c3ccccc3)c2C=O)cc1	·	-4
CCCn1c(SCC(=O)c2cc(OC)ccc2OC)nc2c1c(=O)n(C)c(=O)n2C	·	32
CCN(CC)c1ccc2cc(-c3nnc(-c4ccc(Br)cc4)o3)c(=O)oc2c1	·	-11
Cc1nc2cc(-c3ccc(Cl)cc3)nn2c(C)c1CCC(=O)N1CCC2(CC1)OCCO2	·	-24

The final three entries of the part above open the next one.
SMILES	Arbovirus anti	YopH inh	others
CCCn1c(SCC(=O)c2cc(OC)ccc2OC)nc2c1c(=O)n(C)c(=O)n2C	·	32
CCN(CC)c1ccc2cc(-c3nnc(-c4ccc(Br)cc4)o3)c(=O)oc2c1	·	-11
Cc1nc2cc(-c3ccc(Cl)cc3)nn2c(C)c1CCC(=O)N1CCC2(CC1)OCCO2	·	-24
CCCn1c2c(c(O)c(C(=O)Nc3ccc(C)cn3)c1=O)CCCC2	·	-84
CCCCCNC(=O)C(C#N)c1nc2ccccc2nc1N1CC(C)OC(C)C1 (stereo not drawn)	·	-4
CCCCCc1nc2ccccc2c(=O)n1NC(=O)c1c(O)c2cccc3c2n(c1=O)CCC3	·	47
Cc1cc(-c2ccccc2)nc(N2CCC(C(=O)NCC3CCCCC3)CC2)n1	·	-13
Cc1cc(C)c2c(n1)nn1c(NCCCN3CCOCC3)cc(C)nc21	·	-25
COc1ccc(/C=C2\C(=O)N(c3nc(-c4ccc(Br)cc4)cs3)N=C2c2ccccc2)cc1	·	-15
COc1ccc(N2CCN(CC(=O)Nc3cc4c(cc3C(C)=O)OCO4)CC2)cc1	·	-5
CCC(c1nnnn1C(C)(C)C)N(Cc1cc2cccc(C)c2n2nnnc12)C1CCCC1 (stereo not drawn)	·	-2
CCOC(=O)c1c(C)oc2cc3c(C(=O)OCC)c(C)oc3cc12	·	33
Cc1cncn1CCc1nc2c3ccccc3nc(=S)n2[nH]1	·	11
Cn1c2c(c(=O)n(C)c1=O)C(c1cccc(Br)c1)C1C(=O)c3ccccc3C1=N2 (stereo not drawn)	·	12
CN(C)c1ccc(CNC23CC4CC(CC(C4)C2)C3)cc1	·	-26
CN(C)c1ccc(/C=N/N2C(=N)N(c3ccccc3)C(=S)C2=Nc2ccccc2)cc1	·	-28
O=C1C(=O)N(CCCn2ccnc2)C(c2cccnc2)/C1=C(/O)c1ccccc1 (stereo not drawn)	·	1
Cn1c(=O)c2c(nc(CN3CCc4ccccc4C3)n2CCc2ccccc2)n(C)c1=O	·	-12
COc1cccc(C2/C(=C(\O)c3ccc4c(c3)OCCO4)C(=O)C(=O)N2CCCN(C)C)c1OC (stereo not drawn)	·	-21
CC1CCN(S(=O)(=O)c2ccc(S(=O)(=O)N3CCCN(Cc4ccccc4)C3)cc2)CC1	·	-6
CCOC(=O)c1cc2c(=O)n3cccc(C)c3nc2n(Cc2cccnc2)c1=N	·	-6
COc1cc(-n2c3nc4ccccc4nc3c3c(=O)n(Cc4ccco4)cnc32)cc(OC)c1OC	·	-24
c1ccc(-c2nn3c(C4COc5ccccc5O4)nnc3s2)cc1 (stereo not drawn)	·	1
CC1CCN(CCn2c(=S)[nH]c3ncccc3c2=O)CC1	·	10
CC(=O)Nc1c(C(=O)N2CCN(c3ncccn3)CC2)cnn1-c1ccccc1Cl	·	3
Cn1nc(-c2ccc(N3CCOCC3)c(NC(=O)COc3ccccc3)c2)c2ccccc2c1=O	·	-29
COc1cc(-c2ccc(NC(=O)CN3CCCCC3)c(OC)c2)ccc1NC(=O)CN1CCCCC1	·	-2
Cc1cccn2c(=O)c3cc(C(=O)NCC4CCCO4)n(C)c3nc12 (stereo not drawn)	·	36
COc1ccc2nc(SCC(=O)N3CCN(c4ccccc4F)CC3)c(C#N)cc2c1	·	-30
Cc1cc(C)nc(-n2nc(C)cc2NC(=O)c2ccc(Br)o2)n1	·	-4
O=C(CCn1c(=S)[nH]c2cc3c(cc2c1=O)OCO3)N1CCN(C2CCCCC2)CC1	·	-1
Cc1ccc(-c2cc(C(=O)NCC3CCCO3)c3ccccc3n2)o1 (stereo not drawn)	·	33
O=C1c2ccccc2C(=O)N1CCCN1CCN(CCCN2C(=O)c3ccccc3C2=O)CC1	·	8
Cc1nc(N2CCc3ccccc32)[nH]c(=O)c1CCC(C)C	·	-21
CN(C(=O)c1ccccn1)c1nnc(-c2ccncc2)s1	·	7
COc1cccc(CN2CCN(C(=O)c3cccc(F)c3)CC2)c1	·	13
CCc1nnc(NC(=O)CSc2nnc(CSc3nc(C)cc(C)n3)n2CC)s1	·	8
Cc1cc(SCC(=O)Nc2c(C)n(C)n(-c3ccccc3)c2=O)n2c(nc3ccccc32)c1C#N	·	-23
Cc1c(C(=O)N2CCN(c3ccccc3)CC2)sc2ncnc(N3CCN(c4ccccc4)CC3)c12	·	9
Fc1ccc2[nH]c3c(N4CCN(Cc5ccc6c(c5)OCO6)CC4)ncnc3c2c1	·	-1
Cc1cc(N2CCN(c3nc(N4CCOCC4)nc4ccccc34)CC2)c2ccccc2n1	·	-13
CCN(CC)c1ccc(/C=C2\C(=O)N(c3ccc([N+](=O)[O-])cc3)N=C2N2CCOCC2)cc1	·	-23
O=C(c1ccco1)N1CCN(Cc2ccccc2C(F)(F)F)CC1	·	18
COc1ccc(CNC(=O)CSc2nc3c(c(=O)n(C)c(=O)n3C)n2C)cc1	·	-5
O=C(OCN1C(=O)c2ccccc2C1=O)c1ccc2c(=O)n3c(nc2c1)CCC3	·	18
Cc1oc2cc3c(C(=O)N4CCN(c5ccccc5)CC4)c(C)oc3cc2c1C(=O)N1CCN(c2ccccc2)CC1	·	-38
COC(=O)c1ccccc1NC(=O)c1cc(-c2ccc(OC)c(OC)c2)on1	·	32
O=C(N1CCOCC1)N1CCN(C(=O)N2CCOCC2)CC1	·	-15
CCOc1cc(NC(=O)c2cnccn2)c(OCC)cc1NC(=O)c1ccc(C)cc1	·	-65
Cn1c(=O)n(CCN2CCOCC2)c(=O)c2c1nc1n2CCN1c1ccccc1	·	2
COC(=O)c1ccccc1NC(=O)CSc1nc2c(c(=O)n(C)c(=O)n2C)n1C	·	-46
Clc1cccc(-c2nnc3sc(-c4ccccc4)nn23)c1	·	-20
Cc1nc(NC2=NCN(CC3CCCO3)CN2)nc2ccccc12 (stereo not drawn)	·	4

(listing goes on)
SMILES	Arbovirus anti	YopH inh	others
CCn1cc(C(=O)O)c(=O)c2cnc(N3CCN(C(=O)Nc4ccccc4)CC3)nc21	·	-22
CCCc1nc2ccccc2n2cc3c(=O)n(C)c(=O)n(C)c3c12	·	-101
Cc1ccc(Cc2c(C)nc3c(C(=O)O)cnn3c2C)cc1	·	-17
CCOc1ccc(-c2nnc3sc(-c4ccccc4OC)nn23)cc1	·	-26
CCCCC1CCC(C(=O)Nc2c(C)n(C)n(-c3ccccc3)c2=O)CC1 (stereo not drawn)	·	-5
Cc1ccc(-c2nnc3c4ccccc4c(C)nn23)cc1NC(=O)c1ccco1	·	2
c1nc(N2CCOCC2)c2sc3nc(N4CCOCC4)c4c(c3c2n1)CCCC4	·	-3
COC(=O)c1cc(OC)c(OC)cc1NC(=O)c1c(C)noc1C	·	-15
CCN(CC)CCCN1C(=O)C(O)=C(C(C)=O)C1c1ccc(OC)cc1OC (stereo not drawn)	11	·	Arbovirus anti repeat=6
Cc1occc1-c1nnc2sc(-c3ccc(-c4ccc(Cl)cc4)o3)nn12	-3	·	Arbovirus anti repeat=-5
CCn1c2ccccc2c2nnc(SCN3C(=O)c4ccccc4C3=O)nc21	-6	·	Arbovirus anti repeat=-1
CCC(=O)Nc1ccc(C(=O)Cn2nc(C(=O)O)c3ccccc3c2=O)cc1	4	·
CCOC(=O)c1cnc2ccc(Br)cc2c1NCC(C)O (stereo not drawn)	1	·
Cc1nn(CC(=O)Nc2cccnc2N2CCOCC2)c(=O)c2ccccc12	-1	·	Arbovirus anti repeat=-1
Cc1cc(=O)oc2c1c(C)nn2-c1ccc(C(=O)OC(C)C)cc1	0	·	Arbovirus anti repeat=6
Cn1c(-n2c(CCN3C(=O)c4ccccc4C3=O)nc3ccccc3c2=O)nc2ccccc21	-1	·	Arbovirus anti repeat=-6
COc1ccc(N2CCN(c3nc4c(c(=O)[nH]c(=O)n4C)n3Cc3ccccc3Cl)CC2)cc1	1	·	Arbovirus anti repeat=2
CCc1ccc(C2CC(c3ccc(C)cc3)n3nc(N)nc3N2)cc1 (stereo not drawn)	4	·	Arbovirus anti repeat=0
O=C(CSc1ccc2nnc(-c3cccnc3)n2n1)N1CCc2ccccc21	0	·	Arbovirus anti repeat=-1
C=CCOc1ccc(C2c3c(oc4ccccc4c3=O)C(=O)N2c2ccccn2)cc1OCC (stereo not drawn)	0	·	Arbovirus anti repeat=-1

25 successive records already listed:
SMILES	Arbovirus anti	YopH inh	others
CCOc1cc(NC(=O)c2cnccn2)c(OCC)cc1NC(=O)c1ccc(C)cc1	·	-65
Cn1c(=O)n(CCN2CCOCC2)c(=O)c2c1nc1n2CCN1c1ccccc1	·	2
COC(=O)c1ccccc1NC(=O)CSc1nc2c(c(=O)n(C)c(=O)n2C)n1C	·	-46
Clc1cccc(-c2nnc3sc(-c4ccccc4)nn23)c1	·	-20
Cc1nc(NC2=NCN(CC3CCCO3)CN2)nc2ccccc12 (stereo not drawn)	·	4
CCn1cc(C(=O)O)c(=O)c2cnc(N3CCN(C(=O)Nc4ccccc4)CC3)nc21	·	-22
CCCc1nc2ccccc2n2cc3c(=O)n(C)c(=O)n(C)c3c12	·	-101
Cc1ccc(Cc2c(C)nc3c(C(=O)O)cnn3c2C)cc1	·	-17
CCOc1ccc(-c2nnc3sc(-c4ccccc4OC)nn23)cc1	·	-26
CCCCC1CCC(C(=O)Nc2c(C)n(C)n(-c3ccccc3)c2=O)CC1 (stereo not drawn)	·	-5
Cc1ccc(-c2nnc3c4ccccc4c(C)nn23)cc1NC(=O)c1ccco1	·	2
c1nc(N2CCOCC2)c2sc3nc(N4CCOCC4)c4c(c3c2n1)CCCC4	·	-3
COC(=O)c1cc(OC)c(OC)cc1NC(=O)c1c(C)noc1C	·	-15
CCN(CC)CCCN1C(=O)C(O)=C(C(C)=O)C1c1ccc(OC)cc1OC (stereo not drawn)	11	·	Arbovirus anti repeat=6
Cc1occc1-c1nnc2sc(-c3ccc(-c4ccc(Cl)cc4)o3)nn12	-3	·	Arbovirus anti repeat=-5
CCn1c2ccccc2c2nnc(SCN3C(=O)c4ccccc4C3=O)nc21	-6	·	Arbovirus anti repeat=-1
CCC(=O)Nc1ccc(C(=O)Cn2nc(C(=O)O)c3ccccc3c2=O)cc1	4	·
CCOC(=O)c1cnc2ccc(Br)cc2c1NCC(C)O (stereo not drawn)	1	·
Cc1nn(CC(=O)Nc2cccnc2N2CCOCC2)c(=O)c2ccccc12	-1	·	Arbovirus anti repeat=-1
Cc1cc(=O)oc2c1c(C)nn2-c1ccc(C(=O)OC(C)C)cc1	0	·	Arbovirus anti repeat=6
Cn1c(-n2c(CCN3C(=O)c4ccccc4C3=O)nc3ccccc3c2=O)nc2ccccc21	-1	·	Arbovirus anti repeat=-6
COc1ccc(N2CCN(c3nc4c(c(=O)[nH]c(=O)n4C)n3Cc3ccccc3Cl)CC2)cc1	1	·	Arbovirus anti repeat=2
CCc1ccc(C2CC(c3ccc(C)cc3)n3nc(N)nc3N2)cc1 (stereo not drawn)	4	·	Arbovirus anti repeat=0
O=C(CSc1ccc2nnc(-c3cccnc3)n2n1)N1CCc2ccccc21	0	·	Arbovirus anti repeat=-1
C=CCOc1ccc(C2c3c(oc4ccccc4c3=O)C(=O)N2c2ccccn2)cc1OCC (stereo not drawn)	0	·	Arbovirus anti repeat=-1

The results go on.
SMILES	Arbovirus anti	YopH inh	others
Cc1cc(C)nc(SCCn2c(N3CCC(C)CC3)nc3c2c(=O)n(C)c(=O)n3C)n1	3	·	Arbovirus anti repeat=-3
CC1CN(Cc2nc3c(c(=O)n(C)c(=O)n3C)n2Cc2ccc(Cl)cc2)CC(C)O1 (stereo not drawn)	1	·	Arbovirus anti repeat=-1
Cn1c(SCC(=O)Nc2cc(=O)n(C)c(=O)n2C)nnc1C12CC3CC(CC(C3)C1)C2	-5	·	Arbovirus anti repeat=-2
O=C1CCCN1CC(CN1CCOCC1)Sc1nc2ccccc2c(=O)n1-c1ccccc1 (stereo not drawn)	-5	·	Arbovirus anti repeat=0
c1nc(N2CCNCC2)c2sc3nc(N4CCOCC4)c4c(c3c2n1)CCC4	-8	·	Arbovirus anti repeat=-1
CCOC(=O)c1ccccc1NC(=O)CC1Nc2ccccc2NC1=O (stereo not drawn)	-9	·	Arbovirus anti repeat=-8
O=C1c2oc3ccc(F)cc3c(=O)c2C(c2ccncc2)N1CCN1CCOCC1 (stereo not drawn)	21	·	Arbovirus anti repeat=13
Cc1nc2ccccc2c(=O)n1NC(=O)c1c(O)c2ccccc2n(C)c1=O	1	·	Arbovirus anti repeat=-4
Cc1nnc2n(-c3ccc(Cl)cc3)c(=O)c3c4c(sc3n12)CN(C)CC4	5	·	Arbovirus anti repeat=-1

Screens (PubChem BioAssay)
